AID504770: growth inhibitors of E. coli YBA685 in a screen for V. cholerae RctB (chromosome II replication) inhibitors | actives 0.27% (n = 130,000) | E. coli YBA685 rctB-dependent plasmid, OD600 growth, 3 h; stronger effect = lower value | z-score (test concentration not listed);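 active = z-score under -2 on both plates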;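 note: wells of about 30 µL received 100 nL stock; score is relative to mean and SD of the test wells; the first replicate is given; strong numbers were not always called active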
Ba CapD inh: CapD enzyme inhibition; purified CapD enzyme, fluorescence intensity read-out; stronger effect = lower value; some hits fall short of the stated cut; z-score (test concentration not listed); actives 0.23% (n = 140,000);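 active = z-score under -4 in either of two replicates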;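 note: stock transfer was 100 nL into about 40 µL; score is relative to mean and spread of the plate; one replicate is shown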
Active calls of the source: *; nt = not tested or not shown; & = joins results of further samples.

Each structure is followed by: AID504770	Ba CapD inh
Cc1sc2nc(SCC(=O)N3CCN(CCO)CC3)[nH]c(=O)c2c1C
 : nt	0.15
COc1cc(OC)c(CN2CCN(C(=O)OCc3cccc(C)c3[N+](=O)[O-])CC2)c(OC)c1
 : nt	0.73
CCOC(=O)C1(O)c2ccccc2-c2ccccc21
 : -0.85	0.225
O=C(c1ccc2c(c1)OCO2)N1CCCC1
 : 0.7	-0.145
COC(=O)C1C(=O)C2=C(CC1C)Nc1ccccc1NC2c1ccccc1C (centres undefined)
 : 2	-4.02*
Cc1ccc(-c2nonc2NC(=O)c2ccccc2)cc1
 : -0.5	0.14
COC(=O)c1cc(Cl)sc1NC(C)=O
 : -0.1	0.86
N#Cc1c(SC2CCCC2)nsc1SC1CCCC1
 : -0.4	-0.195
O=C(O)CCn1cccc1
 : -0.1	nt
Cc1cccc(CN(C(=O)Nc2ccc(Cl)c(Cl)c2)c2ccccn2)c1
 : -0.95	9.09
Cc1nc2c(C(=O)NCc3ccc4c(c3)OCO4)cnn2c(C)c1Cc1c(F)cccc1Cl
 : -0.65	-3.22
Cc1ccccc1CN1C(=O)C(=O)N(Cc2cccc(C(F)(F)F)c2)C1=O
 : nt	-0.56
COc1ccc2nc3c(cc2c1)c(=O)n(C)c(=O)n3C
 : -1.1	2.58
Cc1cccc(-n2nnc(C(=O)N3CCc4ccccc4C3)c2N)c1
 : -0.2	-0.65
CCc1cc(SCC(=O)C(C#N)c2nc(C)cs2)n2c(nc3ccccc32)c1C#N (centres undefined)
 : -0.2	nt
Cc1cccc2sc(NS(=O)(=O)c3ccc(C(=O)O)cc3)nc12
 : -0.9	3.27
Cc1ccc(CC(=O)N2CCN(C(=O)C3CCCO3)CC2)cc1 (centres undefined)
 : -0.75	-0.19
Cc1ccc(Cn2cccc(C(=O)N(C)c3ccccc3)c2=O)cc1
 : -0.2	nt
CC1CC(C)(C)OC(C(C)(C)CN(C)C)O1 (centres undefined)
 : -0.6	0.2
COc1cc(C(=O)Nc2nnc(CC(=O)N3CCOCC3)s2)cc(OC)c1OC
 : -1.75	-0.295
O=C(Nc1ccc(N2CCOCC2)cc1)C1c2ccccc2Oc2ccccc21
 : 0.3	nt
O=C(O)CSc1sc(=S)sc1SCC(=O)O
 : -0.5	-4.99*
O=C(C1CCC(CNS(=O)(=O)c2cccc3cccnc23)CC1)N1CCc2ccccc21 (centres undefined)
 : 0.2	0.04
Cc1ccc(C)c(S(=O)(=O)N2CCN(C(=O)CCC(=O)Nc3ccc(OC(F)(F)F)cc3)CC2)c1
 : 0.15	nt
OCc1cc(Cl)ncc1Cl
 : 0.35	0.19
O=C(Cc1ccc(Cl)cc1)NCCS(=O)(=O)N1CCN(c2ccccc2)CC1
 : -0.05	nt
CC(C)C(=O)N(Cc1ccccc1)Cc1nc2ccccc2c(=O)[nH]1
 : -0.7	nt
O=C1CSC(CC(=O)Nc2ccc(Cl)cc2)=N1
 : 0.3	0.71
CCOC(=O)c1c(N)sc2c1C(C(=O)OCC)CCC2 (centres undefined)
 : -0.55	-1.1
N#Cc1cc2c(nc1SCC(N)=O)CCCC2
 : -0.45	0.25
OC(COCc1ccco1)CN1CCc2ccccc2C1 (centres undefined)
 : -0.2	-0.19
Cc1cc(F)ccc1S(=O)(=O)N(C(=O)c1ccncc1)c1ccc2oc(=O)sc2c1
 : -0.6	-0.18
CCCc1ccc(OCc2ccc(C(=O)n3cc(Cl)cn3)o2)cc1
 : -0.4	0.03
Cc1onc(-c2ccccc2)c1C(=O)Nc1ccccc1Oc1ccc(Cl)cc1Cl
 : nt	-0.085
COCCNC(=O)CSc1cc(Cl)nc(Cl)c1
 : nt	0.545
O=C(NC1CCN(Cc2ccccc2)CC1)c1ccsc1
 : -0.4	-0.93
Fc1ccc2c(c1)-c1nc(C3CC3)ncc1CO2
 : -0.3	74.3
Cc1cc(Sc2nnc(C)s2)c2ccccc2n1
 : 0.4	0.28
CCc1ccc(C2C(C(=O)OC)=C(C)NC(C)=C2C(=O)OC)cc1
 : 0.3	11.8
N#C/C(=C\c1ccc(-c2ccccc2)o1)C(=O)Nc1ccccc1
 : 1.45	nt
O=C(Nc1ccc2oc(-c3ccncc3)nc2c1)c1cccc(OCc2ccccc2)c1
 : nt	-0.08
Cc1ccc(S(=O)(=O)Nc2ccc([N+](=O)[O-])cc2NS(=O)(=O)c2ccc(C)cc2)cc1
 : nt	0.285
CCc1c(C)sc(NC(=O)CC#N)c1C#N
 : -0.05	11.3
COc1cccc(C(=O)Nc2ncc3c(n2)CC(C)(C)CC3=O)c1
 : 0.55	nt
NC(=O)CCn1c2ccccc2c2ccccc21
 : -0.3	nt
CN1CN=C2SC3(COC(c4ccc(N(C)C)cc4)OC3)C(=O)N2C1 (centres undefined)
 : 0.25	0.36
Cc1ccc2c(c1)c(-c1ccccc1)c(-c1ccccc1)n2CCC(=O)O
 : nt	62.6
COc1ccc(C(=O)NCCCN2CCOCC2)cc1
 : nt	-0.79
CC(C)(C)c1cc(-c2cc(C(F)(F)F)[nH]n2)c2c(c1)C(C)(C)CC2
 : nt	-0.465
COC(=O)c1ccc(-c2nnc(-c3ccc(N(C)C)cc3)o2)cc1
 : 0.3	nt
CCCOC(=O)COc1ccc2c(=O)c(Oc3ccccc3Br)coc2c1
 : nt	-0.605
CCCCn1c(SC(F)F)nc2ccccc2c1=O
 : -0.45	nt
Cc1cccc(C(=O)N2N=C(c3cccc([N+](=O)[O-])c3)CC2(O)C(F)(F)F)c1 (centres undefined)
 : nt	-0.75
O/N=C/c1c(-c2ccccc2)nc2n1CCS2
 : 1.85	2.33
Cc1[nH]c2ccccc2c1-c1csc(N)n1
 : -0.35	-0.685
CC(=O)Oc1ccc(Cl)cc1C(=O)O
 : -0.2	1.67
CCc1cc(C(=O)N(CC)Cc2ccncc2)cs1
 : -0.25	0.31
CCOC(=O)c1c(-c2ccc(Cl)cc2)nn2c1NCN(C1CCCCC1)C2
 : 0.7	0.215
COCCN1C(=S)NC2c3ccccc3OC13CCCC23 (centres undefined)
 : 0.1	0.015
Cc1cc(C(=O)OCCN(C2=NS(=O)(=O)c3ccccc32)c2ccccc2)ccc1[N+](=O)[O-]
 : nt	-0.15

Further records
Each structure is followed by: AID504770	Ba CapD inh
CCOc1ccc(S(=O)(=O)N(CC(=O)N2CCCCC2)c2ccccc2)cc1
 : -0.2	nt
Cc1ccnc2nc(C(=O)NCCN3C(=O)S/C(=C\c4ccc5c(c4)OCO5)C3=O)nn12
 : -0.85	nt
COC(=O)c1scc(C)c1N1C(=O)C=CC1=O
 : nt	-0.275
N#Cc1ccc(N2Cc3ccccc3C2=NC(=O)c2cccs2)cc1
 : 0.7	0.53
Cc1ccc(-c2nnc(Sc3nc4ccccc4o3)c3ccccc23)cc1
 : 0.5	-0.26
COc1cc(OC)nc(CSCCNS(=O)(=O)c2ccc(C)cc2)n1
 : nt	-0.395
C=CC[n+]1cc(-c2ccccc2)n2c1CCCCC2
 : -0.95	-0.25
COc1cc(N=Cc2ccc3c(c2)OCO3)c(OC)cc1Cl
 : nt	0.785
O=C(NCC1CCN(Cc2ccccc2F)CC1)Nc1ccccc1F
 : -0.45	-0.085
CCn1c(=S)[nH]c2ccccc2c1=O
 : -0.15&0.8	-0.255&0.675
Cc1cc(Br)c2c(c1)C(O)(C1C(=O)Nc3ccccc31)C(=O)N2C (centres undefined)
 : 0.45	0.42
COC(=O)c1[nH]nc2c1C(=O)N(C1CCCCC1)C2=O
 : -1	-0.135
O=C(COC(=O)Cc1ccc(Cl)cc1)NC1CCCCCC1
 : -0.8	0.345
C=CCNC(=O)C1C2C=CC(O2)C1C(=O)O (centres undefined)
 : 0.2	0.61
O=C(NC1CC1)c1ccc2c(c1)NC(=O)c1ccccc1S2
 : -0.6	-0.34
CC(OC(=O)C1CC2CCCC(C1)C2=O)c1nnc(-c2ccccc2)o1 (centres undefined)
 : 2.35	nt
CC(=O)Nc1ccc(Nc2nc(-c3ccccc3)c3cc(Br)ccc3n2)cc1
 : 0.45	-1.43
COc1cc(/C=C2/NC(=O)N(Cc3ccc(Br)cc3)C2=O)cc2c1OCO2
 : nt	5.58
O=C(O)Cc1cnc(-c2ccc(F)cc2)o1
 : -0.9	-0.165
CCOC(=O)c1nc(Nc2ccc(C(F)(F)F)cc2)c2ccccc2n1
 : nt	0.635
O=C(CCS(=O)(=O)c1ccc(Cl)cc1)NC1CCCC1
 : -0.4	nt
CCn1c(O)c(N=NC(=O)Nc2ccc(Cl)c(Cl)c2)c2ccccc21
 : 0.4	nt
CCCc1c2c(C)c(C(=O)OCC)nc-2cc2n1CC(C)=C2C
 : nt	0
CC(Sc1nnc(-c2c[nH]c3ccccc23)n1C)c1ccccc1 (centres undefined)
 : 1.25	nt
COc1ccc(-c2nc(N)n(C(=O)c3ccco3)n2)cc1
 : -1.3	nt
Nc1nc(N)nc(SCC(=O)N2N=C(c3ccc4ccccc4c3)CC2c2ccccc2)n1 (centres undefined)
 : 0.2	nt
CCNS(=O)(=O)c1ccc(Cl)cc1I
 : -0.2	0.65
N#CCOC(=O)C1COc2ccccc2O1 (centres undefined)
 : -1.4	nt
CCOc1ccc(-c2nc3c(c(SCC(=O)OC)n2)Cc2cccc(OCC)c2O3)cc1
 : 0.15	1.08
O=C1CCC(=O)N1Cc1c(Cl)cccc1Cl
 : -0.9	-1.1

Some of the entries above in another layout:
CCn1c(O)c(N=NC(=O)Nc2ccc(Cl)c(Cl)c2)c2ccccc21
  AID504770: 0.4
  Ba CapD inh: nt

CCCc1c2c(C)c(C(=O)OCC)nc-2cc2n1CC(C)=C2C
  AID504770: nt
  Ba CapD inh: 0

CC(Sc1nnc(-c2c[nH]c3ccccc23)n1C)c1ccccc1 (centres undefined)
  AID504770: 1.25
  Ba CapD inh: nt

COc1ccc(-c2nc(N)n(C(=O)c3ccco3)n2)cc1
  AID504770: -1.3
  Ba CapD inh: nt

The list continues.
Each structure is followed by: AID504770	Ba CapD inh
CCOC(=O)COc1ccc2c(=O)c(-c3ccccc3OC)c(C(F)(F)F)oc2c1
 : nt	-0.29
c1ccc(CNCc2ccco2)cc1
 : -1.35	-0.435
O=P1(NCCCl)OCCCN1CCCl (centres undefined)
 : nt	-0.145
CSCn1c(C)nc2ccccc21
 : -1.55	0.05
c1ccc(C2Oc3ccccc3C3CC(c4cccnc4)=NN32)cc1 (centres undefined)
 : -0.15	-0.065
CCCCSc1nnc2c(n1)OC(c1cc3c(cc1Cl)OCO3)Nc1ccccc1-2 (centres undefined)
 : nt	0.105
Cc1ccc(CN2C(=O)c3ccccc3NC2c2ccccn2)cc1 (centres undefined)
 : 0.6	nt
O=C(CC(=O)Nc1ccc(F)cc1F)Nc1ccc(F)cc1F
 : 0.3	-0.455
CCCCCCCCCCCCCCCCOC1OC(COC(C)=O)C(OC(C)=O)C(OC(C)=O)C1NC(C)=O (centres undefined)
 : nt	0.63
N=c1oc2ccccc2cc1C(N)=O
 : -0.65	20
O=C(Nc1ccc(N2CCOCC2)cc1)[C@H](Cc1ccccc1)NS(=O)(=O)c1ccc2c(c1)OCCO2
 : 1	nt
Clc1ccc(C2N=C(c3cnccn3)NN2)cc1 (centres undefined)
 : 0.05	-0.935
CCC(C)(C)c1cc2cc(NC(=O)Nc3cccc(Cl)c3)ccc2[nH]1
 : nt	-0.4
O=C(O)/C=C/c1ccc(S(=O)(=O)N2CCN(CCN3C(=O)C4C5C=CC(C5)C4C3=O)CC2)cc1 (centres undefined)
 : nt	0.1
COc1ccc(OC)c(NC(=O)CSc2nc3nc(C)c(Cc4ccccc4)c(C)n3n2)c1
 : -0.4	-1.23
O=C(/C=C/c1ccccc1)Nc1ccc2nc(SCC(=O)NCC3CCCO3)sc2c1 (centres undefined)
 : nt	-0.385
Cc1ccc(-n2c(C3CC3)n[nH]c2=S)c(C)c1
 : 1.75	-0.66
Cc1nn(C)c2ncc(C(N)=O)c(Oc3cccnc3)c12
 : -0.45	18.3
O=C(O)c1ccc(/C=N/n2cnnc2)cc1
 : 1.75	nt
CCOC(=O)C1=C(C)N=c2s/c(=C/c3cc(OC)c(O)cc3Br)c(=O)n2C1c1ccc(OC)c(OC)c1 (centres undefined)
 : nt	0.015
COc1ccc(-n2cc3c(=O)n(C)c(=O)n(C)c3c2)cc1
 : -0.9	0.36
COC(=O)c1ccccc1S(=O)(=O)NC(=O)Nc1nc(C)c2c(n1)CCSC2
 : 0.4	0.77
CC(C)c1nc(=S)[nH][nH]1
 : 0.2	nt
CC(O)(CNC12CC3CC(CC(C3)C1)C2)c1ccc(Cl)cc1 (centres undefined)
 : -0.2	-0.66
CC(=O)NS(=O)(=O)c1ccc(NC(=O)CN2C(=O)C3CC=CCC3C2=O)cc1 (centres undefined)
 : -2.1	nt
COc1ccccc1NC(=O)CSc1nc2ccccc2c(=O)n1CCCC(=O)NCCc1ccc(OC)c(OC)c1
 : nt	0.46
CCOc1ccc(C2C(C(=O)Nc3nc4ccc(Br)cc4s3)=C(C)NC3=C2C(=O)CC(C)(C)C3)cc1 (centres undefined)
 : nt	20.4
CS(=O)(=O)c1ccc(Cl)c(NC(=O)C2CC(=O)N(Cc3ccccc3)C2)c1 (centres undefined)
 : 1.3	nt
COc1ccc(-n2c(C=C3C(=O)N(C)c4ccc(Br)cc43)nc3ccccc3c2=O)cc1
 : nt	-0.225
CCOc1ccc(-c2cc(CCCC(=O)NCc3ccccc3)no2)cc1
 : 1.35	-0.29
O=c1[nH]cnc2nc3n(c12)CCS3
 : nt	0.435
O=S(=O)(Nc1nccs1)c1ccc(N=Cc2cc(Br)ccc2O)cc1
 : nt	-0.525
Cc1nnsc1C(=O)NCc1c(F)cccc1Cl
 : nt	0.245

Source: PubChem BioAssay
